TRPML1 blocker: human mucolipin-1 channel inhibition; Q9GZU1; activity change, negative = inhibition, % (no concentration beside the values); actives 0.02% (n = 390,000); TRPML1-inducible cells, Ca2+ dye fluorescence, FDSS; hits give low values; inhibition of EC80 agonist-evoked calcium signal; in the data active means activity change below about -50%; inconclusive means about -30% to -50%; inactive means above about -30%;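 also: stimulus is agonist 54-4 at its EC80 concentration; % is scaled to controls: 0 for no effect and ±100 for the full control effect; compound concentration not given in the record; the text of the record puts the active cut at -80%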
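Calcium fluorescence in TRPML1-DL cells induced overnight with Tet: a 110 s read after compound pin addition, then a 110 s antagonist read after challenge with 54-4 at 4 uM final (EC80).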
PINK1 modulator: modulators of PINK1 expression; PINK1 immunofluorescence, high-content cytometry, 24 h; Potency, µM (top dose mostly 76.6 µM), inactives show at the highest dose activation (PINK1 increase), hits mostly activators; actives 0.2% (n = 410,000); active = well fitted activation curve with a large enough effect; inconclusive = small, poorly fitted or top-dose-only effect; inactive = flat fitted curve, though single readings scatter; cell line not stated here;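 also: potency is read from the fitted curve at half-maximal effect; % of control where 0% means no effect; nearly all actives have a fitted effect of over 65% in size; a mitochondrial uncoupler was the plate control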
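Decision-based qHTS: stable cells, 24 h exposure to five compound concentrations, CCCP as control. Fixed cells stained for PINK1 plus nuclear, mitochondrial and cell markers, cytometer read.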
D2 PAM: positive allosteric modulators of human D2 dopamine receptor. potentiation, % (test concentration not listed). DiscoveRx D2 beta-arrestin cells, luminescence, 90 min; 100% = 57 uM dopamine signal. P14416. AID 624464. actives 0.23% (n = 360,000); active = potentiation of 50% or more; inconclusive = 30% to 50%; inactive = 30% or less;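 also: compound concentration not given in the record; tested on top of an EC20 dose of dopamine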
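PathHunter D2 cells, attached overnight at 37 deg C, received compound in DMSO plus dopamine at EC20 (50 nM final) for 90 min at 37 deg C. Beta-arrestin recruitment was read as luminescence after 1 h with detection reagent at ambient temperature.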
TRPML1 agonist: human mucolipin-1 channel agonism | actives 0.12% (n = 410,000) | Q9GZU1 | AID 624414 | activation, % (concentration not given with the values) | TRPML1-expressing cells, Ca2+ dye fluorescence, FDSS; host cell line not named in the record; reference of the full effect not given here; in the data active = activation above about 50%; inconclusive = about 30% to 50%; inactive = below about 30%; also: 0% is about no effect; the text of the record puts the active cut at 80%
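TRPML1-DL cells, Tet-induced overnight (~16 h, 37 degrees C), loaded 45-90 min at room temperature with Ca8 no-wash calcium dye plus quencher. FDSS fluorescence: 10 s baseline, compound pin-transfer, 110 s agonist read, then EC80 54-4 (4uM final) and 110 s antagonist read.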
Six1-Eya2 inh: blocks human Six1 binding to Eya2 | actives 0.56% (n = 360,000) | activity change, % (concentration not given with the values) | Q15475+O00167 | AlphaScreen GST-Six1/His-Eya2 binding, biochemical; hits give low values; control for the full effect not named in the record; in the data active = activity change below about -65%; inconclusive = about -30% to -65%; inactive = above about -30%; also: % is scaled to controls: 0 for no effect and ±100 for the full control effect
Target sequence (O00167 whole entry, looked up): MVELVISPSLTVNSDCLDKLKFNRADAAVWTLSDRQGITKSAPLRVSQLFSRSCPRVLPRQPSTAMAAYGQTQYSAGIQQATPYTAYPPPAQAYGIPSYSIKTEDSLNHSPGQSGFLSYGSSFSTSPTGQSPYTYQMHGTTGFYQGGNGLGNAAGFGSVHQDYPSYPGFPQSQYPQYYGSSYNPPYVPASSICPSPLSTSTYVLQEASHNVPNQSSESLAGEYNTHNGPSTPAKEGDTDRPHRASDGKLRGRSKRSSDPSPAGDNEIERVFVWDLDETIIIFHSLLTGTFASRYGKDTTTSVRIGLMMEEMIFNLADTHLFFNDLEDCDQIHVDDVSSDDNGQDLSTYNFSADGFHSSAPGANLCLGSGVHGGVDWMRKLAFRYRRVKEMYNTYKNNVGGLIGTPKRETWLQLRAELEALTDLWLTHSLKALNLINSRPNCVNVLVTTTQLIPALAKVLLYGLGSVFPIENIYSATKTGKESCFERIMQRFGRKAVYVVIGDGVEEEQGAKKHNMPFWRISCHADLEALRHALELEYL
Target sequence (Q15475 whole entry, looked up): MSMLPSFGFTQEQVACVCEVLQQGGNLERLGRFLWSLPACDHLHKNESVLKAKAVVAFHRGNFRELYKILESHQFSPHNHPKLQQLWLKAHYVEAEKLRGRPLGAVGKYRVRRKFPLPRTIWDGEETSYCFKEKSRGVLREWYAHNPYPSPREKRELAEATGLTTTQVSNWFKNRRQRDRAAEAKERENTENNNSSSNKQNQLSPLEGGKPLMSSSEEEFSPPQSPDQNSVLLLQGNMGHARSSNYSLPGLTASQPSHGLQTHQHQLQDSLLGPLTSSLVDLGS
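GST-Six1 + His-Eya2 (5X stock: 250/500 nM); Tris pH 8.0, 300 mM NaCl, 0.05% BSA, 0.02% Tween 20; GSH donor/Ni acceptor beads; 1 h 37 °C dark; AlphaScreen readout.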
D2 agonist: agonists of human D2 dopamine receptor (beta-arrestin). DiscoveRx PathHunter D2 beta-arrestin, luminescence, 90 min; 100% = 57 uM dopamine signal. P14416. activation, % (test concentration not listed). actives 0.084% (n = 360,000); in the data active = activation above about 40%; inconclusive = about 15% to 40%; inactive = below about 15%; also: compound concentration not given in the record; the text of the record calls up to 30% inactive
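DiscoveRx PathHunter D2 beta-arrestin cells (2,100/well) attached overnight, then compound-stimulated 90 min at 37 C in HBSS/10 mM HEPES/0.1% Tween-20 buffer; beta-galactosidase complementation read by luminescence after 1 h at ambient temperature. Dopamine 57 uM final (EC100) as control.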
* marks the source's active call; other numbers are inactive results; ? = inconclusive; · = not tested or not shown; & = joins results of further samples; [ ] = remark or other dose.

SMILES	TRPML1 blocker	PINK1 modulator	D2 PAM	TRPML1 agonist	Six1-Eya2 inh	D2 agonist
COc1ccccc1NC(=S)N/N=C/c1ccc(O)cc1	2.1	0.0%	-10.6	1.5	?	0.4
O=C(COc1ccc(Cl)cc1Cl)NC1CCSC1=O (configuration not stated)	1.9	-0.9%	-4.2	1.3	5.0	-2.5
O=C(CNC(=O)c1ccco1)OCC(=O)c1ccccc1	9.4	3.2%	-21.4	-0.5	-0.1	-5.7
Cc1[nH]n(-c2ccc([N+](=O)[O-])cc2)c(=O)c1C=NCCN1CCN(C(=O)c2cccc(F)c2)CC1	-2.8	-3.1%	-9.4	-0.5	-7.1	-2.4
Cc1ccccc1NC(=O)Cn1cnc2c(oc3nc4c(cc32)CCCC4)c1=O	-11.3	15.4%	-10.2	1.0	-5.7	0.7
Cc1nc(-c2ccccc2)sc1C(=O)CSc1ccc(Br)cc1	-0.3	1.7%	-15.9	2.5	42.6	-2.4
Cc1ccc(S(=O)(=O)Cc2ccc(C(=O)O)o2)cc1	-11.7	0.4%	-2.8	0.0	-5.9	-4.4
COc1cc(C(=O)NCCN=C2NS(=O)(=O)c3ccccc32)cc(OC)c1OC	6.4	-1.2%	-2.0	-0.2	-7.8	-1.3
CCc1ccc(C(C)NC(=O)/C(C#N)=C\c2cn[nH]c2-c2ccccc2)cc1 (configuration not stated)	-3.5	?	-8.5	1.1	-3.8	1.7
N#CC1=C(N)Oc2cc3ccccc3cc2C1c1cccs1 (configuration not stated)	0.1	5.8%	-21.9	1.9	17.5	-0.3
Cc1ccc(NS(=O)(=O)c2c(C(=O)N3CCCCCC3)c(C)n(C)c2C)c(C)c1	10.7	1.5%	-8.5	-0.6	-1.2	-2.8
COc1cccc(NC(=O)c2ccc(S(=O)(=O)N3CCCC3)cc2)c1	-3.1	1.0%	-4.5	0.0	17.3	-1.9
S=C(NCCCN1CCOCC1)N1CCN(c2ccccc2)CC1	59.4	1.2%	-7.4	-0.4	9.9	-2.0
c1coc(CN(Cc2cccs2)Cc2nnnn2C2CCCCC2)c1	13.8	-0.5%	-5.9	2.2	-6.9	-2.3
CCc1nnc(NC(=O)CSc2nnc(-c3ccc(S(=O)(=O)N(CC)CC)cc3)n2CC)s1	-12.1	0.4%	2.5	-1.3	0.8	1.3
CCCCCc1c(CC)ncn1CCc1ccccc1OC	·	31.6µM*	·	-1.0	-10.2	·
Cc1ccc(C(=O)NC(=S)NCc2ccccc2)cc1Br	-15.8	1.0%	-4.5	0.1	-6.9	-2.0
O=C(NCCc1cccs1)C1CC(c2cccc([N+](=O)[O-])c2)=NO1 (configuration not stated)	-2.0	0.3%	-5.7	0.4	-0.3	-5.8
C=CCn1c(SCc2ccc([N+](=O)[O-])cc2)nnc1C(C)NC(=O)c1ccccc1 (configuration not stated)	-4.8	-0.8%[38.3 µM]	11.4	-0.1	2.3	-0.7
O=c1oc2ccc(Cl)cc2nc1/C=C(\O)c1ccco1	-11.3	0.7%	10.9	0.0	-10.5	3.5
Cc1ccccc1OCc1n[nH]c(=S)n1-c1cccc(Cl)c1	8.1	-1.4%	-34.8	-0.7	-2.2	-6.7
O=C(NCCc1c[nH]c2ccccc12)c1ccc(S(=O)(=O)NCc2ccco2)cc1	-7.6	-0.1%	1.3	1.6	-0.4	0.6
C#CCCC(=O)c1ccccc1/C=[N+](\[O-])c1ccccc1	-5.1	5.9%	-4.0	-0.2	5.5	-3.7
CCOC(=O)c1ccccc1NC(=O)c1ccc(N(C)S(C)(=O)=O)cc1	7.5	·	-15.5	-0.2	2.1	-1.1
O=[N+]([O-])c1ccc2nc(CCCO)[nH]c2c1	7.4	0.0%	-5.5	-0.3	14.3	-4.8
CC(=O)c1c(N2CCOCC2)nc2ccc(Br)cc2c1-c1ccccc1	-13.8	1.2%	-1.2	1.6	-11.6	0.4
COc1ccc(/C=C/c2c(-c3ccc(OC)cc3)oc(=O)c3cc(OC)c(OC)cc23)cc1	-2.0	1.0%	-1.7	0.2	-4.4	0.3
N=C1C(=O)NC(=O)C1c1ccccc1 (configuration not stated)	-17.7	0.9%	-4.2	2.3	0.0	-2.2
Cc1ccc(-c2cnn3c(N4CCOCC4)cc(C)nc23)cc1	6.9	1.0%	-11.0	2.0	15.3	-3.9
CCC(=O)Nc1cccc(NC(=S)NC(=O)c2cc3ccccc3o2)c1	-7.9	9.4%	-2.3	0.3	6.6	4.1
COc1ccccc1N1CCN(CC(=O)NCc2ccc(Cl)cc2)CC1	-18.6	-1.3%	-67.3	-0.9	4.4	-0.8
COC(=O)c1cc(CNC(=O)c2ccc(S(=O)(=O)N(C)c3ccccc3)cc2)ccc1OC	-9.9	-0.8%	-11.2	0.0	-1.2	-0.8
O=[N+]([O-])c1ccc(Oc2cccnc2)c([N+](=O)[O-])c1	13.2	18.0%	12.9	0.4	-6.8	5.8
CCCCOC(=O)Nc1nc2ccccc2s1	-4.8	-0.5%	18.9	0.5	0.7	-0.7
COc1ccc(C(=O)Nc2nc(C)c(C)s2)cc1OC	-19.3	0.1%	-16.6	-0.4	-16.5	-2.4
COc1ccccc1-c1noc(CCCC(=O)NC2CCCC2)n1	1.8	0.5%	-4.1	-0.3	-6.3	-4.6
CCOC(=O)/C(=C\c1ccccc1)C(=O)c1cc(C(C)=O)c(Nc2ccccc2)s1	26.8	-1.9%[38.3 µM]	-18.4	4.5	5.1	-2.7
COc1ccc(CNc2nc3c(c(=O)n(Cc4ccc(Br)cc4)c(=O)n3C)n2C)cc1	-0.6	-4.9%	-6.4	-1.5	1.5	-0.2
CC(C)[C@H](NC(=O)C1CC(=O)N(c2ccc(F)cc2)C1)C(=O)N1CCCCC1 (some centres not stated)	36.3	1.9%	-5.2	0.3	5.1	-1.2
Cc1ccc(Cn2c(SCC(=O)NCC3CCCO3)nc3ccsc3c2=O)cc1 (configuration not stated)	30.8	2.4%	4.1	-0.5	-19.1	-1.7

Three structures from above, sorted by number of heavy atoms, largest number first.
SMILES	TRPML1 blocker	PINK1 modulator	D2 PAM	TRPML1 agonist	Six1-Eya2 inh	D2 agonist
Cc1ccc(NS(=O)(=O)c2c(C(=O)N3CCCCCC3)c(C)n(C)c2C)c(C)c1	10.7	1.5%	-8.5	-0.6	-1.2	-2.8
CCc1ccc(C(C)NC(=O)/C(C#N)=C\c2cn[nH]c2-c2ccccc2)cc1 (configuration not stated)	-3.5	?	-8.5	1.1	-3.8	1.7
Cc1ccc(-c2cnn3c(N4CCOCC4)cc(C)nc23)cc1	6.9	1.0%	-11.0	2.0	15.3	-3.9

(next part)
SMILES	TRPML1 blocker	PINK1 modulator	D2 PAM	TRPML1 agonist	Six1-Eya2 inh	D2 agonist
Clc1ccc(-c2c[n+](Cc3ccc(Br)cc3)c3n2CCCCC3)cc1	37.6	-1.2%	-3.9	5.2	-4.5	-3.1
COc1ccccc1N1CCN(S(=O)(=O)c2ccccc2F)CC1	-20.3	-0.8%[38.3 µM]	-9.6	-0.3	-5.0	-1.1
COCCn1ccc2c(OCC(=O)NCc3ccc(C)cc3)cccc2c1=O	-12.2	1.7%	-5.9	0.6	3.1	-0.7
CCc1ccccc1N(C(=O)c1snc(C(N)=O)c1N)C(C(=O)NCC1CCCO1)c1ccc(N(C)C)cc1 (configuration not stated)	1.2	0.8%	9.6	-0.2	-1.8	4.2
CN(CC(=O)Nc1ccccc1Cl)C1CCCCC1	-12.6	6.0%	-6.6	0.6	9.9	-4.1
COc1ccc(CCNC(=O)C(=O)Nc2ccccc2F)cc1	2.3	3.1%	·	-0.3	·	·
Cc1ccc2[nH]cc(C(=O)CN3CCN(c4ccccc4F)CC3)c2c1	1.4	-2.9%[38.3 µM]	-21.5	0.8	-2.6	-2.2
O=C(NCc1ccccn1)[C@@H]1CCCN1C(=O)[C@@H]1CCCN1C(=O)c1ccccc1	·	-0.3%	·	-0.2	2.9	·
O=C(Nc1c(-c2ccccc2)nc2ccccn12)c1ccccc1F	-2.7&-11.4	0.0%&1.3%	-1.2	1.3&-0.2	-1.3	-4.5
CCc1nc2c(OCc3ccc(Cl)cc3)cccn2c1N(C)C(=O)c1ccncc1	·	6.1%	-9.5	-0.8	-15.9	-4.9
CCn1c(SCC(=O)Nc2cccc(Cl)c2)nnc1-c1nonc1NC(C)=O	2.9	1.0%	·	-0.6	·	·
Cc1cc(C(=O)OCC(=O)NCCCN2CCCC2=O)c2ccccc2n1	-4.2	2.8%	-11.8	-0.7	1.4	-2.8
C=CCC1(/C=N/O)CCOC(C)(C)C1 (configuration not stated)	-14.6	-0.2%	-10.1	-0.2	2.3	2.8
Cn1ncc(N=Cc2ccccc2O)c1C(=O)Nc1ccccc1	6.6	4.4%	-1.7	1.5	-12.2	-3.0
COc1cc(CNCCO)cc(Cl)c1OCc1ccc(Cl)cc1Cl	28.8	-1.2%	-11.0	0.8	-1.8	-9.0
Cc1nn(C)c(C)c1S(=O)(=O)NCCc1ccc(Cl)cc1	8.5	0.6%	-15.6	-0.3	-1.0	-0.7
Cc1ccc(N2C(=O)CC2(C#N)c2ccc(OCc3ccccc3)cc2)cc1 (configuration not stated)	5.5	1.4%	-13.4	0.4	2.9	0.2
CCC(C)(C)n1nnnc1CN(Cc1cc2cc(OC)ccc2[nH]c1=O)C1CCCC1	2.8	·	-7.7	1.1	-1.5	-3.4
C[C@H](NC(=O)[C@@H]1CCCN1C(=O)[C@@H]1CCCN1C(=O)c1ccccc1)c1ccccc1	·	-0.5%	·	-0.8	0.5	·
COC(=O)C1CN(C(=O)COc2ccccc2C)c2ccccc2O1 (configuration not stated)	22.4	1.7%	-0.9	1.2	-2.3	1.4
Cc1c(C(=O)Nc2ccc3c(c2)OCO3)oc2ccccc12	10.8	4.3%	-11.5	1.3	-14.6	-0.9
C=Cc1ccc(N=Cc2c(O)ccc3ccccc23)cc1	7.6	1.5%	2.5	0.9	-2.6	-1.4
COc1ccc(C(N)c2csc(Nc3ccc(S(C)(=O)=O)cc3)n2)cc1 (configuration not stated)	·	0.6%	-9.8	-0.2	6.7	-0.5
NC(=O)c1ccc(C(F)(F)F)n(Cc2ccc(F)c(F)c2)c1=O	1.0	0.1%	0.6	0.4	0.8	1.4
O=C(O)c1ccc2c(c1)C(=O)/C(=C/c1ccccc1)C2=O	-17.7	-2.1%	4.8	1.6	?	0.1
CCn1c(SCC(=O)Nc2ccc(NC(=O)c3ccco3)cc2)nnc1-c1cccs1	-3.6	13.4%	-3.4	-0.9	-4.5	-0.8
Cc1cc(C(=O)COC(=O)CNC(=O)c2ccco2)c(C)n1Cc1ccco1	-7.4	2.2%	-3.9	0.3	-13.7	-0.3
COc1ccccc1CCC(=O)OCC(=O)Nc1cc(S(=O)(=O)N2CCOCC2)ccc1C	-2.7	-4.0%	-23.2	1.5	-6.4	-3.2
COc1ccc(S(=O)(=O)N2CCC(C(N)=O)(N3CCCCC3)CC2)cc1	-12.5	0.9%	-2.5	-0.2	4.1	-2.1

Screening results deposited in PubChem by National Center for Advancing Translational Sciences (NCATS).
